Compound activity: PubChem, PCMD
Biofilm kill mix: mixtures killing C. albicans biofilm; C. albicans biofilm persisters + clotrimazole, fluorescence viability; primary screen in compound mixtures of four per well; inhibition, % at 7.6 µM; 120,000 compounds, 0.02% hits;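 active means inhibition above 30.3% in the primary screen of four-compound pools, then above 30% when the compound was retested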;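 further: compounds exposed to preformed 24 h biofilms for 48 h; the number belongs to the whole pool; some results filed as inactive read as strong as hits; inactives centre near 12; 0% = biofilm with clotrimazole alone and 100% = kill control; retested singly at about 60 µM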
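Test system: C. albicans CAF4-2 wild-type biofilms; buffer or medium: RPMI/MOPS medium, pH 7.0; schedule: 24 h biofilm formation, then 48 h compound exposure, 37 °C; detection: Alamar Blue fluorescence; measure: percent inhibition of biofilm viability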
Starred values were filed as active, the others as inactive. Some of the compounds tested (hit frequency here may not be typical).

SMILES | Biofilm kill mix
COc1ccc(NC(=O)COC(=O)/C=C/c2ccccc2[N+](=O)[O-])cc1 | 12
O=C(CSc1ccc(-c2ccncc2)nn1)c1ccccc1 | 15
COc1ccc(C2(CNC(=O)c3ccc(OC)c([N+](=O)[O-])c3)CCCCC2)cc1OC | 9
Cc1ccn2c(C(=O)N/N=C/c3ccc(CNC(=O)C(=O)Nc4ccc(C)c(C)c4)o3)c(C)nc2c1 | 10
O=C(COC(=O)c1ccc(OC(F)F)cc1)NCCCN1CCCC1=O | 19
Cc1ccc(S(=O)(=O)NCCNc2ccccc2[N+](=O)[O-])cc1 | 0
CC(C)Oc1ccc(C2CC(=O)N(c3ccc(N(C)C)cc3)C2=O)cc1 (configuration not stated) | 14
CC(C)c1onc(C(=O)N2CCCCC2C)c1[N+](=O)[O-] (configuration not stated) | 9
O=C(COc1ccc([N+](=O)[O-])cc1)N1CCN(c2nnc(-c3ccccc3)c3ccccc23)CC1 | 12
Brc1ccccc1-c1cnco1 | 18
CCc1ccccc1NC(=S)N(CCCN1CCN(C)CC1)Cc1cccs1 | 8
NC(C(=O)O)C1CC(Cl)=NO1 (configuration not stated) | 6
CCNC(=S)N/N=C/c1cc(C)n(-c2ccc(Cl)cc2)c1C | 14
Cc1cccc(NCC(=O)N/N=C\c2ccc[nH]2)c1 | -8
O=S(=O)(NCCCc1ccccc1)c1cccc2nsnc12 | 11
O=C(NCc1cccs1)C(=O)NCC1OCCCN1S(=O)(=O)c1ccc(F)cc1 (configuration not stated) | 4
N#CC(c1nc2ccccc2nc1OCCO)S(=O)(=O)c1ccccc1 (configuration not stated) | 19
Cc1ccc(/C=N/n2c(C)nnc2C)o1 | 1
CCn1nc(C)c(Br)c1-c1nc(-c2ccc(C)cc2)no1 | 19
Cc1cc(NCCCO)n2nc(-c3cccs3)cc2n1 | 1
COc1ccc(/C=C(/NC(=O)c2ccco2)C(=O)N2CCCC2=O)cc1 | 9
Nn1c(SCc2cccc(Br)c2)nnc1-c1ccncc1 | 19
Cc1ccc(C(=O)O)cc1NC(=O)Nc1ccc2c(c1)OCO2 | 23
CSC(=NC(C)c1ccccc1)NS(=O)(=O)c1cccs1 (configuration not stated) | 17
COc1ccc(/C=N\NC(=O)c2c(C)nc3ccc(Br)cn23)cc1 | 11
CCCc1c(C)nc2ccc(OC)cc2c1SCCC(=O)O | 7
COC(=O)c1ccc(=O)n(CC(=O)c2ccc(Cl)cc2)c1 | 7
COc1ccc(C)cc1S(=O)(=O)N(C)CC(=O)NC1CCCCCC1 | 9
Cc1ccc(NC(=O)COC(=O)CN2C(=O)NC(C)(C)C2=O)cc1S(=O)(=O)N1CCOCC1 | 18
Cc1cccc(-c2ncc(CN3CCC(CO)(CCCc4ccccc4)CC3)cn2)c1 | 8
CC1(C)OC(C)(C)/C(=C/Nc2ccccc2)C1=O | 18
COc1ccc(N(C)S(=O)(=O)c2cccc3nsnc23)cc1 | 18
O=C(C1CCC1)N1CCC(O)(c2cccc(F)c2)CC1 | 17
Nc1c(C(=O)O)sc2nc(-c3ccc(F)cc3)cc(-c3ccccc3)c12 | 22
CCc1cc(-c2nc(N)ncc2-c2csc(C)n2)c(O)cc1OC | 16
Cc1ccc(NC(=O)c2ccccc2NS(=O)(=O)c2ccc(Cl)s2)cc1 | 12
C=CCn1c(SCCC)nc2sc3c(c2c1=O)CCc1ccccc1-3 | 5
Nc1ccccc1C(=O)NNC(=O)C(=O)/C=C(\O)c1ccccc1 | 25
Cn1nnnc1SCC(=O)NNC(=O)c1ccc(Br)cc1 | 11
CC(=O)c1ccc(NC(=O)c2ccc3c(Cl)c4c(nc3c2)CCCC4)cc1 | 8

Grouped by structure: the entries above containing an aryl methoxy group (8)
SMILES | Biofilm kill mix
COc1ccc(NC(=O)COC(=O)/C=C/c2ccccc2[N+](=O)[O-])cc1 | 12
COc1ccc(C2(CNC(=O)c3ccc(OC)c([N+](=O)[O-])c3)CCCCC2)cc1OC | 9
COc1ccc(/C=C(/NC(=O)c2ccco2)C(=O)N2CCCC2=O)cc1 | 9
COc1ccc(/C=N\NC(=O)c2c(C)nc3ccc(Br)cn23)cc1 | 11
CCCc1c(C)nc2ccc(OC)cc2c1SCCC(=O)O | 7
COc1ccc(C)cc1S(=O)(=O)N(C)CC(=O)NC1CCCCCC1 | 9
COc1ccc(N(C)S(=O)(=O)c2cccc3nsnc23)cc1 | 18
CCc1cc(-c2nc(N)ncc2-c2csc(C)n2)c(O)cc1OC | 16

Later entries
SMILES | Biofilm kill mix
CCOc1ccc(/C=C2\SC(=S)N(NS(=O)(=O)c3ccc(C)cc3)C2=O)cc1OC | 11
Cc1cc(N=NC(=O)c2ccccc2O)c2ccccc2c1O | 12
CC(C)(C)NC(=O)COC(=O)c1ccc(NC(=O)CC#N)cc1 | 9
Cc1ccnc(NC(=O)Nc2ccc3c(c2)OCO3)c1 | 16
COC(=O)C1C(=O)C2=C(CC1C)Nc1ccccc1NC2c1cccs1 (configuration not stated) | 7
COC(=O)Cc1ccc(NC(=S)NCCO)cc1 | 19
COCCNc1nc(-c2ccccc2)nc2ccccc12 | 9
CCOC(=O)C1C(c2ccccc2)C(C(=O)OCC)C1c1ccccc1 (configuration not stated) | -7
CC(C)(C)c1cc(C(=O)Nc2ccccc2)ccn1 | 5
COc1ccc(-n2c(SCC(=O)Nc3ncc(Cl)cc3Cl)nc3ccccc32)cc1 | -2
CN(Cc1ccccc1)C1=CC(=[N+]2CCCC2)CC(C)(C)C1 | 8
Cc1cc(C)cc(NC(=O)CSc2ccc(-c3ccco3)nn2)c1 | 11
COc1cc(C(=O)O)ccc1Cl | 24
NC(=O)C1=CN(Cc2ccc(Cl)cc2)CCC1C(F)(F)F (configuration not stated) | 17
O=C1N(Cc2cccc(Cl)c2)C[C@@H]2C[C@@H](c3c[nH]c4ccccc34)N3CCC[C@@]123 | 6
CCOP(=O)(OCC)/C(C#N)=C(\O)c1ccc(OC)cc1 | 20
CCN(CC)C1CCN(C(=O)CCc2nnc(CCc3ccccc3)o2)C1 (configuration not stated) | 4
O=C(N/N=C/c1ccc2nccnc2c1)c1cccc([N+](=O)[O-])c1 | 11
COc1ccc(C)cc1S(=O)(=O)N1CC(C)OC(C)C1 (configuration not stated) | 2
CCC(C)Nc1nc(N)c([N+](=O)[O-])c(Nc2ccccc2OC)n1 (configuration not stated) | 8
Cc1cccc2sc(N(CCN(C)C)C(=O)c3cc(Cl)sc3Cl)nc12 | 8
CC(=O)N(c1nc(CCl)cs1)c1c(C)cc(C)cc1C | 14
O=C(NCCc1ccc(Cl)cc1)c1nnc(Cc2ccc(Cl)cc2)o1 | 11
Cc1cc(C(=O)OCC(=O)Nc2nnc(C(C)C)s2)c2ccccc2n1 | 20
N#CCCN(C(=O)COC(=O)c1ccc2c(=O)n3c(nc2c1)CCC3)c1ccccc1 | 1
COc1ccc(-c2cn3cc(C(=O)NN)ccc3n2)cc1 | 8
OCCC1CN(Cc2cnc(-c3ccccc3)s2)CCN1C1CCCCC1 (configuration not stated) | 1
CC(C)COCC(O)CCC(=O)NNC(=S)Nc1ccccc1 (configuration not stated) | 11
COc1cccc(OC)c1C(=O)NC(C)c1ccccc1 (configuration not stated) | 10
CCOCCCNC(=O)C(NC(=O)Cc1c[nH]c2ccccc12)c1ccc(OC)cc1 (configuration not stated) | 12
CCn1cc(-c2csc(N)n2)c(C)n1 | 10
COc1ccc(-c2c(C)n([O-])c3c([n+]2=O)CCCCC3)cc1OC | 16
O=C(Nc1ccc(F)cc1F)c1cc2ncc(CCCl)cn2n1 | 17
NC(=O)c1cc(NC(=O)c2ccc(NS(=O)(=O)c3cccs3)cc2)cc(C(N)=O)c1 | 14
COCC(C)n1c(C)cc(C(=O)CSc2nnnn2-c2ccc(O)cc2)c1C (configuration not stated) | 8
N#Cc1c(F)cccc1NCc1cccs1 | 19
CCNS(=O)(=O)c1ccc(NC(=S)NCc2ccco2)cc1 | 13
COCC(C)OC(=O)c1c(N)n(CCCN2CCOCC2)c2nc3ccccc3nc12 (configuration not stated) | 15
CCOc1ccc2[nH]c(SCC(=O)OC)c([N+](=O)[O-])c2c1 | 22
O=C(CN1C2=NCCCN2c2ccccc21)c1cccc(Br)c1 | 11

Among those listed so far, these contain a furan ring, fused or not.
SMILES | Biofilm kill mix
Cc1ccn2c(C(=O)N/N=C/c3ccc(CNC(=O)C(=O)Nc4ccc(C)c(C)c4)o3)c(C)nc2c1 | 10
Cc1ccc(/C=N/n2c(C)nnc2C)o1 | 1
COc1ccc(/C=C(/NC(=O)c2ccco2)C(=O)N2CCCC2=O)cc1 | 9
Cc1cc(C)cc(NC(=O)CSc2ccc(-c3ccco3)nn2)c1 | 11
CCNS(=O)(=O)c1ccc(NC(=S)NCc2ccco2)cc1 | 13

Shown in markdown: part of the list above.
| structure | Biofilm kill mix |
| --- | --- |
| CC(C)COCC(O)CCC(=O)NNC(=S)Nc1ccccc1 (configuration not stated) | 11 |
| COc1cccc(OC)c1C(=O)NC(C)c1ccccc1 (configuration not stated) | 10 |
| CCOCCCNC(=O)C(NC(=O)Cc1c[nH]c2ccccc12)c1ccc(OC)cc1 (configuration not stated) | 12 |
| CCn1cc(-c2csc(N)n2)c(C)n1 | 10 |

(more compounds)
SMILES | Biofilm kill mix
OCCN1CCN(CC(O)COCC2COc3ccccc3O2)CC1 (configuration not stated) | 7
O=C(COc1ccc(Br)cc1)N1CCc2ccccc21 | 20
CC(=C/c1ccccc1)/C=N/Nc1nc(N2CCOCC2)nc(N2CCOCC2)n1 | 4
Cc1ccc(C)c(NCc2n[nH]c(=S)n2-c2ccccc2)c1 | 6
COC(=O)Cc1[nH]n(-c2nc3ccccc3s2)c(=O)c1C(C)=Nc1ccc(C)cc1 | 17
FC(F)Sc1nc(-c2ccccc2)c(-c2ccccc2)n1C(F)F | 15
O=C(O)c1cccc(-c2ccc(/C=N/NC(=O)C3COc4ccccc4O3)o2)c1 (configuration not stated) | 6
CCO[C@@H]1OC(C(=O)NCc2nc3ccccc3[nH]2)=C[C@H](C2CCCCC2)[C@H]1CCCO | 19
COc1ccc(CC(=O)Nc2cccc(C(=O)NN3C(=O)c4ccccc4C3=O)c2C)cc1 | -7
CCOC(=O)c1c(-c2ccc(C)cc2)csc1NC(=O)CCN1CC(C)OC(C)C1 (configuration not stated) | 18
COc1cc(C#N)c(NC(=O)CN2CCN(CCO)CC2)cc1OC | 7
O=C(CC1CCC1)NC(c1ccccc1)c1ccccc1 | 5
COc1ccc(/C=N/NC(=O)C(C)Sc2ccccn2)cc1[N+](=O)[O-] (configuration not stated) | 15
CN(C)S(=O)(=O)c1ccc(C(=O)Nc2nnc(SCc3cccc4ccccc34)s2)cc1 | 13
CC(C)(C)c1cc(C(=O)NNc2ccc(OC(F)(F)F)cc2)n(Cc2ccccc2)n1 | 22
O=[N+]([O-])c1cc(/C=N/NC(=S)Nc2ccccc2Cl)ccc1Cl | 5
CC1CCN(CC(=O)c2cccs2)CC1 | 8
CN(C)S(=O)(=O)c1cccc(-c2csc(=Nc3ccccc3)n2CCCN2CCOCC2)c1 | 21
O=[N+]([O-])c1ccc(/C=N/NC(=S)Nc2ccccc2)o1 | 13
O=C(NC(Cc1ccccc1)C(=O)O)/C(=C/c1ccc(Cl)cc1)NC(=O)c1ccccc1 (configuration not stated) | 1
N#Cc1c[nH]n2c(=O)c3c(nc12)CCC3 | 1
CCOC(=O)c1c(-c2ccccc2)csc1NC(=O)CSc1nnc(C)s1 | 8
O=C(O)CCC(=O)NNC(=O)c1ccc([N+](=O)[O-])cc1 | 19
CC(=O)c1c(C)[nH]c(C(=O)COC(=O)c2cc(S(=O)(=O)N(C)c3ccccc3)ccc2Cl)c1C | 9
Cn1c(Cl)cnc1C(O)(c1ccccc1)c1ccccc1 | 12
Cn1c(NC(=O)/C=C\c2ccccc2)cc(=O)n(C)c1=O | 10
CCOCc1nnc(NC(=O)c2ccc(OC)cc2)s1 | 5
C/C(=N\Nc1ccc(S(=O)(=O)Nc2ccc(Cl)cc2)cc1[N+](=O)[O-])c1ccc(N2CCOCC2)cc1 | 6
Cc1nc(-c2ccccc2)sc1C1(C)CC(c2ccc(OC(F)(F)F)cc2)=NO1 (configuration not stated) | 18
Nc1nnn(CC(=O)N/N=C/c2cccc(Cl)c2)n1 | 29
Cc1ccsc1/C=N/n1c(C2CCCCC2)n[nH]c1=S | 10
NC(=O)C1CCN(C(=O)COc2ccc(Nc3ccccc3)cc2)CC1 | 16
c1ccc2c(c1)Sc1ccccc1-n1cnnc1-2 | 13
O=c1cnnc(N/N=C/c2ccccn2)[nH]1 | 1
CC(=O)c1ccc(OCc2ccc(Oc3c(Cl)cccc3[N+](=O)[O-])cc2)cc1 | 16
CCOc1cccc(N2C(=O)CC(NNC(=O)c3ccc(Br)o3)C2=O)c1 (configuration not stated) | 15
Cc1cc(=O)oc2cc(OC(=O)c3ccccc3)ccc12 | -7
CCC(=O)Nc1ccc(-c2nnc(SCC(=O)NCC3CCCO3)n2C)cc1 (configuration not stated) | 16
O=C1/C(=C/c2cccnc2)SC(=S)N1C1CCS(=O)(=O)C1 (configuration not stated) | 18
CCCC(=O)NC(Nc1c(C)n(C)n(-c2ccccc2)c1=O)C(Cl)(Cl)Cl (configuration not stated) | 17

As entered above.
Biofilm kill mix with O=C(CSc1ccc(-c2ccncc2)nn1)c1ccccc1 : 15
Biofilm kill mix with C/C(=N\Nc1ccc(S(=O)(=O)Nc2ccc(Cl)cc2)cc1[N+](=O)[O-])c1ccc(N2CCOCC2)cc1 : 6
Biofilm kill mix with N#Cc1c(F)cccc1NCc1cccs1 : 19
Biofilm kill mix with COc1ccc(NC(=O)COC(=O)/C=C/c2ccccc2[N+](=O)[O-])cc1 : 12

Additional structures follow:
SMILES | Biofilm kill mix
Cc1ccc(C(=O)N/C(=C/c2ccccc2)C(=O)NC(Cc2ccccc2)C(=O)O)cc1 (configuration not stated) | 5
CCCCOc1ccc(C(=O)N/C(=C\c2ccc([N+](=O)[O-])cc2)C(=O)OCc2ccco2)cc1 | 8
O=C(NCC(O)CN1CCOCC1)c1ccc([N+](=O)[O-])cc1 (configuration not stated) | 13
CCOC(=O)Cc1ccc(NCc2ccc(Cl)cc2)cc1 | 22
O=C(CN1CCN(c2ccccc2O)CC1)NNC(=O)c1ccc(Cl)cc1 | 12
